RanGTP-Impb inh: inhibitors of RanGTP-importin-beta interaction, primary screen, biochemical, FRET, CFP-Ran, YFP-importin-beta, homogeneous. Ran GTPase (GTP-bound) - importin-beta complex. cell-free CFP-Ran/YFP-importin-beta FRET ratio. inhibition, % (no concentration beside the values). 300,000 tested, 1.1% active. AID 2216, 2009;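 active = most replicates above 15%; inconclusive = exactly half above 15%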;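 note: 0% = DMSO wells and 100% = Ran loaded with GDP instead of GTP; wells of about 40 µL received 100 nL stock; the first replicate is given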
ALR inh: inhibitors of human ALR sulfhydryl oxidase, primary screen, biochemical, H2O2 detection, HRP-luminol luminescence, single point; FAD-linked sulfhydryl oxidase ALR (Homo sapiens), P55789; purified ALR, DTT oxidation; inhibition, % (concentration not given with the values); 290,000 tested, 3.8% active; AID 485317, 2010;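 active = mean and each replicate at 75% or more; inconclusive = only one of the two met; inactive = neither met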;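 note: stock transfer was 7.5 nL into about 7.5 µL; 0% = neutral wells and 100% = wells with inactivated enzyme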
Target sequence (P55789 whole entry, looked up): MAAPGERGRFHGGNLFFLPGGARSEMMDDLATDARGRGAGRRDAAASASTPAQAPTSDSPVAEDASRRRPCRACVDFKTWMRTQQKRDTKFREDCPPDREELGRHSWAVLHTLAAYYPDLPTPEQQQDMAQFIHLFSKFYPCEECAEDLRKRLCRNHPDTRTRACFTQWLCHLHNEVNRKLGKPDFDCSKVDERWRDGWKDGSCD
Calb FLC: C. albicans growth inhibition with fluconazole, primary screen, CaCi-2 strain, Alamar Blue fluorescence. 300,000 tested, 0.57% active. C. albicans CaCi-2 (fluconazole-resistant clinical isolate) + fluconazole, 48 h. growth inhibition, % (concentration not given with the values);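 active = most replicates above 75%; inconclusive = exactly half above 75%; inactive = most below 75%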;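 note: all wells also contain fluconazole at 8 µg/ml as a sub-toxic cotreatment; 0% = median of DMSO wells and 100% = median of geldanamycin control wells; wells of about 8 µL received 7.5 nL stock; the first replicate is given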
T cruzi inh: inhibitors of intracellular T. cruzi growth, primary screen, luminescence, NIH3T3 host cells; 300,000 tested, 1.4% active; T. cruzi beta-gal in NIH3T3, 90 h; AID 1885, 2009; inhibition, % (concentration not given with the values);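 active = mean inhibition across valid replicates above about 55%, limit read from the data; inconclusive = mean below that limit but half or more replicates reach it; inactive = mean below it, under half of replicates reach it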;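 note: signal also drops with host cell toxicity which is not excluded here; 0% = plate median of DMSO wells and 100% = zero luminescence signal; higher percent means less beta-gal luminescence so fewer parasites; stock transfer was 50 nL into about 50 µL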
Ecoli rRNA inh: reduced GFP signal of wild-type E. coli, primary screen, bacterial rRNA inhibitor project, GFP/RFP fluorescence, OD600, single point. 350,000 tested, 1.6% active. AID 720706, 2013. E. coli WT GFP vs humanized-ribosome RFP mutants, 24 h; hits give low values; DMSO median 0, no signal -100. GFP signal change (wild-type ribosome), % (no concentration beside the values);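 active = significant combined selectivity score with lowered wild-type GFP, culture density cut under 30%, mutant RFP and density less affected; inactive = any of these conditions unmet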; note: one replicate is shown; some compounds called inactive have numbers as strong as hits
Beta apoptosis: inhibitors of cytokine-induced beta cell apoptosis, primary screen, luminescence; AID 435005, 2010; 300,000 tested, 0.8% active; protection from apoptosis, % (concentration not given with the values); INS-1E cytokine-induced death, ATP luminescence, 48 h; percent of positive-control rescue, neutral wells zero;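 active = all replicates at 75% or more, or half of them and the mean; inconclusive = half reach 75% but not the mean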;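 note: 0% = cytokine-treated negative control wells and 100% = positive control rescue; higher means more ATP so stronger rescue from cytokine killing; wells of about 40 µL received 100 nL stock; the first replicate is given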
FGF22 binding: binders of human FGF22 protein, primary screen, FGF22 synaptogenesis inhibitor project, biophysical, thermal shift, single point | Fibroblast growth factor 22 (Homo sapiens), Q9HCT0 | 340,000 tested, 1.5% active | calls only at 9.99 µM | AID 651658, 2012 | recombinant FGF22 thermal shift, SYPRO orange fluorescence; percent of sucrose octasulfate shift, DMSO zero;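 active = melting point raised past a set limit in the mean and every replicate; inconclusive = no clear call; three in four hits are not shown here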
Target sequence (Q9HCT0 whole entry, looked up): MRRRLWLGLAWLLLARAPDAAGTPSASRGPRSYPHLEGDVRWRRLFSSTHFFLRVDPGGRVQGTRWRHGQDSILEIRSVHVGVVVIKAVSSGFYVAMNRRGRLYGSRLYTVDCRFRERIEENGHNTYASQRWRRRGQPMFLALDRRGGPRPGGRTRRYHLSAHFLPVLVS
MLL AF4-AF9 inh: inhibitors of AF4 peptide binding to AF9, primary screen, biochemical, AlphaScreen, biotin-AF4 peptide, FLAG-AF9, single point | Protein AF-9 (Homo sapiens), P42568 | inhibition, % at 10 µM | 350,000 tested, 0.47% active;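 active = every replicate reaching a set inhibition limit, whatever the replicate mean, cut at about 25% in these data; inconclusive = mean inhibition reaches that limit but some replicates miss it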;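 note: 0% = plate neutral control median and 100% = total signal loss; the record names both 10 and 1 µM as test concentration; the first replicate is given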
Target sequence (P42568 whole entry, looked up): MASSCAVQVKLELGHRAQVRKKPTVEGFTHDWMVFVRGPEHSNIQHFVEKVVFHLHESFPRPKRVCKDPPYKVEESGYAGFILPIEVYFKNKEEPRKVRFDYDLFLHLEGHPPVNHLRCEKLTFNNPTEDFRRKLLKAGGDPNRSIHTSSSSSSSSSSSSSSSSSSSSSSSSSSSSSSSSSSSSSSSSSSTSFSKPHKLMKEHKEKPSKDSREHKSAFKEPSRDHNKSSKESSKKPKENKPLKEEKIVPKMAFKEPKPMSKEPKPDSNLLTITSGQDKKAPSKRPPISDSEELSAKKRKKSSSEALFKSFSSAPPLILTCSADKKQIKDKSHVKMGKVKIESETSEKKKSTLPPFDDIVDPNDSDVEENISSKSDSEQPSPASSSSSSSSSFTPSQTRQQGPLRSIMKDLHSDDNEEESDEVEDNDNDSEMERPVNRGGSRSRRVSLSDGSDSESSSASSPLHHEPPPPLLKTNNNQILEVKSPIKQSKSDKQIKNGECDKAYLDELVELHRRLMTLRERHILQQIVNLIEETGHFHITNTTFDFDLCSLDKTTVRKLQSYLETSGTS
Ecoli rRNA inh OD600: also measured in Ecoli rRNA inh; calls as there; OD600 change, %; measured here: OD600 growth;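 optical density of the mix in the first replicate; 0 = DMSO median and -100 = no signal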
Ecoli rRNA inh RFP: recorded beside Ecoli rRNA inh, whose call it bears; RFP signal change, %; measured here: RFP humanized mutant strains;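 first replicate; 0 = DMSO median and -100 = no signal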
The depositor's hits bear a star; i = inactive; ? = inconclusive; . = not tested or not shown. An excerpt (hit frequency here may not be typical).

SMILES | RanGTP-Impb inh | ALR inh | Calb FLC | T cruzi inh | Ecoli rRNA inh | Ecoli rRNA inh OD600 | Ecoli rRNA inh RFP | Beta apoptosis | FGF22 binding | MLL AF4-AF9 inh
CC(=O)Nc1ccc(NC(=O)C2CCCCC2C(=O)O)cc1 (stereo not drawn) | 2.4 | -6 | 18 | -27 | . | . | . | -9 | . | .
COc1ccccc1NS(=O)(=O)c1ccc(-c2cc(C)no2)s1 | 1.9 | 1 | 5 | -10 | -12 | -4 | -6.1 | 21 | i | 1.1
C=CCn1c(SCC(=O)NCC(c2ccccc2)N(C)C)nnc1C1CCCCC1 (stereo not drawn) | . | 14 | . | . | 3 | 9 | 0.0 | -4 | i | 2.9
COCC1CCCCN1C(=O)c1cc(COc2ccc3ncccc3c2)on1 (stereo not drawn) | 4.5 | -2 | 17 | -120 | -1 | -3 | -0.4 | 86* | i | 0.7
COc1cc(-c2nnn(CC#N)n2)ccc1OCc1ccccc1 | 5.9 | 2 | 0 | 6 | . | . | . | -2 | . | .
Cc1ccc(C(=O)N/N=C2/NC(=O)CC(C(=O)Nc3ccccc3)S2)cc1 (stereo not drawn) | 1.6 | . | -5 | -12 | -9 | -3 | 11 | -1 | i | 0.9
Cc1ccsc1C(=O)N1CCN(C(=O)c2ccco2)CC1 | . | 2 | . | . | 7 | 9 | -2.5 | -7 | i | 0.0
O=C(Nc1nc2nccc(-c3ccccc3)n2n1)C(Cl)(Cl)Cl | -1.3 | . | 3 | 5 | . | . | . | -6 | i | 4.8
Cc1cc(=O)oc2cc(OCC(=O)Nc3ccc(CN4CCOCC4)cc3)c(Cl)cc12 | -3.2 | -16 | 0 | 22 | -5 | -3 | -12 | 1 | i | -1.0
O=C(CCC(=O)c1cccs1)OCc1nnc(-c2ccccc2)o1 | 0.7 | 2 | -1 | -2 | . | . | . | -3 | . | .
Cc1ccc(CNS(=O)(=O)c2cccc3nsnc23)cc1 | 5.0 | -4 | 32 | -7 | -4 | 3 | 3.0 | -5 | i | 1.1
COc1ccc(OC)c(Nc2nc(-c3sc(NC(=O)C(C)(C)C)nc3C)cs2)c1 | ? | -19 | 7 | 4 | 10 | 10 | 2.9 | 36 | i | 2.3
COCC(=O)N(Cc1cc2cc(C)ccc2[nH]c1=O)c1ccccc1 | 1.2 | -12 | 2 | -6 | -5 | 4 | -0.7 | -5 | i | 0.2
CN(C)C(=O)CSc1nc2ccc(C(=O)c3ccccc3)cc2[nH]1 | 3.8 | -7 | 3 | 2 | -8 | 1 | -2.7 | 0 | i | -2.0
Cc1onc(-c2c(F)cccc2Cl)c1C(=O)NC1=NCCS1 | 1.4 | -6 | -4 | -14 | . | . | . | 1 | . | .
CC(C)(C)c1ccc(C(=O)NCC(=O)N2CCCCCC2)cc1 | -4.2 | . | -11 | 10 | -3 | -4 | 0.5 | -7 | i | -1.4
O=c1[nH]c(CSc2nnc(-c3ccccc3)n2C2CCCCC2)nc2ccccc12 | 6.6 | -22 | -3 | 11 | . | . | . | 1 | . | .
Cc1cccc(N=Nc2ccc(O)c3ncccc23)c1 | ? | . | -1 | 51 | . | . | . | 88* | . | .
CC(C)(C)c1ccccc1OCC(=O)NCCC(=O)O | ? | -6 | 12 | -15 | . | . | . | -6 | . | .
CN(C)CC(=O)Nc1ccc(S(N)(=O)=O)cc1 | 4.3 | -2 | -19 | -3 | . | . | . | -7 | . | .
O=c1[nH]c(CSc2nc(-c3ccccc3)cs2)nc2ccccc12 | -0.9 | -3 | 4 | 10 | . | . | . | -1 | . | .
Cc1noc(C)c1S(=O)(=O)NCCN1CCN(c2ccccc2)CC1 | -4.2 | 86* | 2 | -5 | . | . | . | -6 | . | .
COC(=O)C1(C)NC(c2ccccc2F)C2C(=O)N(c3ccccc3)C(=O)C21 (stereo not drawn) | 2.7 | 6 | 1 | -4 | 20 | 4 | 1.5 | -5 | i | -4.8
CCOC(=O)C1=C(COC(=O)CCNS(=O)(=O)c2ccc(C)c(C)c2)NC(=O)NC1C (stereo not drawn) | . | -1 | . | . | 0 | -18 | 1.5 | 5 | i | 0.3
CCCCSCCCNC(=O)c1cn(CC)c2ccc(S(=O)(=O)N3CCOCC3)cc2c1=O | 4.5 | -5 | 17 | -7 | -7 | -7 | 3.4 | 15 | i | 2.3
COc1cc(NC(=S)NNC(=O)CC(C)C)c(OC)cc1Cl | -0.7 | 60 | 7 | 5 | -2 | -9 | -1.6 | 1 | . | -2.2
CN1CCN(CC(C)(C)NS(=O)(=O)c2ccccc2)CC1 | . | . | . | . | 7 | 11 | 2.1 | 1 | i | -2.9
CN(C)S(=O)(=O)N(Cc1ccc(Br)cc1)c1ccccc1 | 1.6 | 1 | ? | 7 | . | . | . | -2 | . | .
COc1cc(/C=C/c2cccc[n+]2C)ccc1OCC(=O)Nc1cccc(Cl)c1 | 1.1 | 6 | -27 | 5 | 4 | 2 | -0.7 | 7 | i | 6.6
Cc1ccc2c(c1)C1CN(C)CCC1N2C(=O)COc1ccccc1F (stereo not drawn) | 2.1 | . | -2 | 13 | 12 | 10 | -1.9 | 0 | i | 2.2

Next section, starting with the last 2 of the part before.
SMILES | RanGTP-Impb inh | ALR inh | Calb FLC | T cruzi inh | Ecoli rRNA inh | Ecoli rRNA inh OD600 | Ecoli rRNA inh RFP | Beta apoptosis | FGF22 binding | MLL AF4-AF9 inh
COc1cc(/C=C/c2cccc[n+]2C)ccc1OCC(=O)Nc1cccc(Cl)c1 | 1.1 | 6 | -27 | 5 | 4 | 2 | -0.7 | 7 | i | 6.6
Cc1ccc2c(c1)C1CN(C)CCC1N2C(=O)COc1ccccc1F (stereo not drawn) | 2.1 | . | -2 | 13 | 12 | 10 | -1.9 | 0 | i | 2.2
Cc1csc(CN(C)C(=O)CC2C(=O)NCCN2CC(C)(C)C)n1 (stereo not drawn) | 0.6 | -17 | 2 | -5 | 17 | 3 | -2.9 | 0 | i | -2.9
Cn1c(=S)oc2ccccc21 | 1.7 | 4 | -1 | 8 | 12 | 8 | 0.4 | 5 | i | 2.4
O=C(NCCc1ccccc1)c1c[nH]c2c(F)cccc2c1=O | 1.8 | . | -5 | 4 | -8 | -7 | -4.2 | -5 | i | 2.4
O=C(OCC(=O)N1CCCC1=O)c1nc(Cl)c(Cl)c(Cl)c1Cl | 4.1 | 8 | 6 | -15 | 5 | 14 | 1.9 | -5 | i | -1.3
CCC(C)(C)NC(=O)C(c1cccs1)N(C(=O)c1ccn[nH]1)c1cccc(OC)c1 (stereo not drawn) | 4.1 | -3 | 26 | -6 | 2 | 6 | -0.8 | -4 | i | 0.0
COc1ccc(C)c2sc(N(CCCN(C)C)C(=O)CS(=O)(=O)c3ccc(F)cc3)nc12 | 1.7 | -16 | -2 | 14 | 15 | 14 | 2.6 | . | i | 10
COc1ccc(-n2c(=O)c(CCC(=O)N3CCC(C)CC3)nc3ccccc32)cc1 | . | . | . | . | -5 | -1 | -1.1 | -4 | i | 1.5
Cc1ccc(NCC(=O)Nc2cccc(S(=O)(=O)N(C)C)c2)cc1S(=O)(=O)N1CCCCCC1 | -2.4 | 16 | -6 | 7 | 0 | -1 | 2.8 | 19 | . | -11
Cn1cc(SCC(=O)N2CCOCC2)c2ccccc21 | -2.0 | . | 0 | -29 | -2 | -4 | -1.6 | -5 | i | 0.5
COc1cc(C(=O)NNC(=S)NC(=O)c2ccc(Cl)cc2)cc(OC)c1OC | 1.0 | 96* | -5 | 70* | . | . | . | 18 | . | .
Cc1cccc2cncc(OCc3nnc(SC(F)F)n3C)c12 | ? | -4 | -5 | -4 | 14 | 19 | 1.0 | . | i | -0.3
Cc1nn(CCC(=O)Nc2cccc(C#N)c2)c(C)c1S(=O)(=O)N1CCCCC1 | -1.3 | -3 | 0 | -7 | 1 | -2 | -0.4 | 4 | i | -5.8
C/C(Cc1ccccc1)=N\NC(=O)CNC(=O)c1ccccc1F | -1.1 | 7 | -2 | -1 | 9 | 5 | -2.1 | -6 | i | 1.5
Cc1cccc(COCC(CC(C)C)N2CCN(C(=O)c3ccc(C(F)(F)F)cc3)CCC2=O)c1 (stereo not drawn) | 4.1 | 7 | -23 | 14 | -1 | -4 | 3.8 | 8 | i | -1.9
CCOC(=O)c1[nH]c(C)c(C(=O)NCc2cccnc2)c1C | -1.6 | -8 | -11 | -5 | 0 | -2 | -3.2 | -9 | i | -2.8
Cc1cc(Oc2ccc(=O)n(C)n2)nc(Oc2ccc(=O)[nH]n2)n1 | 2.4 | -4 | . | 4 | . | . | . | -4 | . | .
COc1ccc(-c2csc(CCN3N=C(C)CC3=O)n2)cc1 | -0.1 | -12 | 5 | -15 | . | . | . | -2 | . | 0.5
COc1cccc(C(=O)CN2C3=NCCCN3c3ccccc32)c1 | 0.3 | 0 | -50 | 2 | . | . | . | 4 | . | .
N#C/C(=C\c1cn(-c2ccccc2)nc1-c1cc2ccccc2o1)c1nc2ccccc2[nH]1 | ? | 22 | 20 | 24 | . | . | . | 2 | . | .
Cn1nnnc1SCc1ccccc1[N+](=O)[O-] | -1.7 | 2 | 9 | -7 | . | . | . | -25 | . | .
CCOC(=O)CN(C(=O)Cn1nnc(-c2ccc(OC)cc2)n1)C(C(=O)NC1CCCC1)c1ccc(F)cc1 (stereo not drawn) | 2.9 | -8 | 4 | 12 | -2 | 4 | -2.5 | -4 | i | -35
COc1ccc(CC(=O)OCn2nnc3ccccc3c2=O)cc1 | 3.3 | -16 | -2 | -18 | . | . | . | 1 | . | .
Cc1nnc(SCC(=O)N2CCOCC2)[nH]c1=O | 1.8 | 4 | 2 | -22 | 6 | 15 | 9.5 | 1 | i | 2.3
COc1cc(NC(=O)c2cccs2)c(OC)cc1NC(=O)CCC(=O)Nc1ccc(C)cc1 | -1.9 | . | -21 | -3 | 5 | 5 | -0.7 | -3 | i | 1.9
Cc1cccc(C)c1NC(=O)CN(C)C(=O)Cn1c(=O)cnc2ccccc21 | -5.6 | 0 | -3 | -6 | 4 | 11 | -0.8 | -4 | i | -14
O=S1(=O)C[C@@H](N2CCOCC2)[C@H](N2CCOCC2)C1 | 3.2 | -18 | -1 | -7 | . | . | . | -3 | . | .
C/C(=N\NC(=O)c1cccc(O)c1)c1cccc(NC(=O)c2ccc(F)cc2)c1 | -1.6 | 3 | -11 | 3 | -6 | 0 | 0.7 | 8 | i | -1.3
O=C(CN(C(=O)CNS(=O)(=O)c1ccccc1)c1ccc(Cl)cc1)NCC1CCCO1 (stereo not drawn) | 1.4 | -2 | 28 | 8 | 6 | -3 | -3.3 | 2 | i | -1.8
